From PubChem BioAssay
Sa RN4220 lethal – S. aureus RN4220 growth inhibition | OD600, 16 h | inhibition, % (concentration not given with the values) | 0.33% of 330,000 active;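 active means z-score of -3 or lower and OD600 up to 0.18 on both plates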;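 further: plate controls were untreated cells for no effect and reference antibiotic for full effect; stock transfer was 100 nL into about 80 µL; one replicate is shown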
PrP UTR inh – inhibition of PrP 5' UTR reporter expression; cell-based PrP 5' UTR mRNA reporter, plate reader; inhibition, % (test concentration not listed); 0.35% of 340,000 active;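 active means every replicate at 50% or more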;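 further: 0 = median of the neutral control wells; tested in H4 reporter cells; numbers are from one replicate; inactives centre near -14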
Bead autofluor – compound fluorescence in toxin protease inhibitor counterscreen; compound autofluorescence counterscreen, microsphere flow cytometry; stronger effect = higher value; fluorescence intensity (test concentration not listed); 3.1% of 360,000 active; AID 624483;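 active means at least 3 SD above the mean of all compounds, about 16000 in these data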;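 further: 100 nL of 1 mM stock went into each well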
Mtb hypoxia rep – reduces hypoxia-regulated biosensor signal in M. tuberculosis | M. tuberculosis hypoxia-regulated fluorescent reporter, fluorescence | fluorescence inhibition, % (concentration not given with the values) | 0.1% of 300,000 active;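 active means 35 to 45% if threefold the growth effect, above 45% if 1.5-fold the growth effect; inactive means the rest, general growth blockers included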;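 further: wells of about 50 µL received 100 nL stock; 0% = vehicle wells and 100% = reference inhibitor wells; whole bacteria with a GFP reporter of the hypoxia response; strong numbers were not always called active; many hits fall short of the cut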
BJeLR viability – BJeLR cell viability loss; BJeLR (HRASV12) viability, CellTiter-Glo ATP luminescence, 48 h; reference of the scale not given here; inhibition, % (concentration not given with the values); 0.17% of 300,000 active; AID 1554;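 active means replicate mean above 50%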;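 further: 50 nL library stock added to about 25 µL; numbers are from one replicate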
Sa ugtP lethal – compounds lethal to S. aureus RN4220 ugtP deletion mutant; 0.54% of 330,000 active; growth inhibition, % (concentration not given with the values); OD600 growth, 16 h; some inactives read as strong as hits;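 active means z-score under -3 and OD600 up to 0.15 on both plates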;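 further: plate controls were untreated wells for no effect and antibiotic for full effect; wells of about 80 µL received 100 nL stock; the first replicate is given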
Mtb hypoxia rep growth – second read-out of Mtb hypoxia rep, no call of its own (marks repeat the call); growth inhibition, %; measured here: M. tuberculosis growth (absorbance);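 0% = vehicle and 100% = reference antibiotic; read after six days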
An asterisk follows results filed as active; nt = not tested or not shown.

SMILES	Sa RN4220 lethal	PrP UTR inh	Bead autofluor	Mtb hypoxia rep	Mtb hypoxia rep growth	BJeLR viability	Sa ugtP lethal
CC1=NCCN1S(=O)(=O)c1cc([N+](=O)[O-])ccc1Cl	6.6	-1	4788	8	2	2	2
Cc1ccccc1OCC(=O)OCC(=O)Nc1cc(S(=O)(=O)N2CCCCC2)ccc1Cl	-0.2	-13	6027	-5	5	-6	8
COc1ccc(N=Nc2c(-c3ccc(OC)cc3)[nH]oc2=O)cc1	6.2	-32	3265	8	1	-3	5
COc1ccc(C(=O)c2ccc(Br)cc2)c2ccccc12	-7.0	0	2156	16	5	13	11
O=C(CSc1nccn1Cc1ccccc1)Nc1ccccc1	-2.8	-14	6031	4	-8	-4	-1
Cc1cc2c(=O)n(CC(=O)N3CCN(c4ccc(F)cc4)CC3)cnc2s1	0.2	-31	2960	nt	nt	-3	7
CCC(=NNC(=O)C1CC1)c1cccc(Cl)c1	7.8	nt	nt	14	0	nt	2
COc1ccc(S(=O)(=O)Cc2ccc(C(=O)N3CCN(c4ccccn4)CC3)o2)cc1	3.6	7	5441	nt	nt	-10	8
O=C(N/N=C/c1c(O)n(-c2cccc3ccccc23)c(=O)[nH]c1=O)c1ccncc1	nt	-12	3693	nt	nt	-1	nt
CCn1c(NC(=O)c2cccc(Cn3cc(Cl)cn3)c2)nc2ccccc21	7.7	-30	5454	-5	8	16	7
Cn1c(C(=O)N2CCCC(C(=O)NCCCSC3CCCCC3)C2)cc2sccc21 (stereo not drawn)	nt	-8	4487	nt	nt	1	nt
Cc1ccc(CNC(=O)CN2C(=O)COc3ccc(C)cc32)cc1	4.3	-12	19416*	7	9	1	-3
O=C(c1ccc(-c2ccccc2Cl)s1)N1CCOCC1	11	-24	3146	10	7	6	12
COc1cc2nc(CN3CCN(S(=O)(=O)c4ccccc4)CC3)[nH]c(=O)c2cc1OC	6.6	-21	nt	2	0	nt	6
COc1ccccc1CNCC(O)(c1ccc(Cl)cc1)c1ccc(Cl)cc1	-2.3	6	23819*	-21	-6	-2	-35
CSc1ccccc1C(=O)C1CCCN(Cc2cnn(-c3ccccc3)c2)C1 (stereo not drawn)	0.0	-9	2593	-4	-1	-9	7
COc1ccc(N(C(=O)c2ccco2)C(C(=O)NC2CCCC2)c2ccc(C)cc2)c(OC)c1 (stereo not drawn)	0.8	-12	6304	1	-9	-1	9
O=C(CSc1nncn1-c1cccnc1)Nc1ccccc1[N+](=O)[O-]	-0.7	0	3066	-1	-3	-6	3
CCCCCC1=CCC/C1=N\NC(=O)c1ccc2c(c1)OCO2	nt	-12	5208	nt	nt	-9	nt
Brc1csc(/C=N/Nc2nc3ccccc3s2)c1	nt	-135	2227	nt	nt	1	nt
O=C(NC1CC1)C1=CC(c2ccccc2)CC(OCc2ccc(CO)cc2)O1 (stereo not drawn)	4.5	nt	nt	6	7	nt	2
C=CCn1c(O)c(C(C)=NCCN2CCN(C(=S)NC)CC2)c(=O)[nH]c1=O	-0.6	-20	3751	-9	3	-2	-4
CCOC(=O)C1C2COc3ccc(C)cc3C2N2C(=O)C(CO)NC(=O)[C@@]12C (stereo partly drawn)	4.8	nt	nt	13	-2	nt	-3
CCC1=NN2C(=N)/C(=C\c3cccn3-c3ccc(Cl)cc3)C(=O)N=C2S1	nt	-8	2304	nt	nt	-1	nt
COCCNC(=S)NN=C(C)c1ccc(Cl)s1	2.6	nt	nt	23	25	nt	4
CCN(CC)P(=O)(c1ccccc1)c1c(C)nc2ccccn12 (stereo not drawn)	1.5	-31	3616	15	9	-6	5
CCC(C)(C)n1nnnc1C(c1ccccn1)N1CCOCC1 (stereo not drawn)	5.3	-13	8859	15	11	-4	7
CC(C)CC(CO)N1CCN(C(=O)c2ccc(C(C)(C)C)cc2)CCC1=O (stereo not drawn)	10	-15	3682	19	7	nt	10
O=C(CCC(=O)OCCCC(F)(F)C(F)(F)F)Nc1ccc(Cl)cc1Cl	-6.9	-4	2839	-3	7	-23	-7
Cc1cccc(-c2nc3ccccc3c(=O)[nH]2)c1	-1.3	-42	3380	3	8	3	-8
COc1ccccc1Nc1nc(-c2cccnc2)cs1	0.7	-168	4443	9	6	-5	1
CC1(CC(=O)NN=Cc2ccc(-c3cccc(C(F)(F)F)c3)o2)OCCO1	8.8	nt	nt	1	0	nt	2
Cc1cc(C)c(S(=O)(=O)Nc2ccc(Cl)cn2)c(C)c1	4.3	-15	nt	11	1	5	15
O=C(CN1CCCC1)Nc1ccc(Br)cc1[N+](=O)[O-]	2.9	-29	4114	-5	11	-3	0
O=C(NNC1=NS(=O)(=O)c2ccccc21)c1ccc(Cl)cc1	1.7	-10	3233	9	7	-3	13
O=C(Nc1ncc(Cc2cccc(C(F)(F)F)c2)s1)C1CCCO1 (stereo not drawn)	2.0	-19	6492	-1	-7	-1	2
C=CCOc1cccc(C=C2C(=O)N(Cc3ccc(C)cc3)C(C)=C2C(=O)OC)c1	-5.6	nt	nt	-2	6	nt	-8
CC(C)(C)OC(=O)N1CCCC(C(=O)CC#N)C1 (stereo not drawn)	8.4	-20	2371	nt	nt	10	7
O=C(N(c1ccccc1)c1ccccc1)N(c1ccccc1)c1ccccc1	10	nt	8053	4	11	12	54
COc1ccccc1N(Cc1ccccc1)S(=O)(=O)c1cccc(C(=O)NC2CC(C)(C)NC(C)(C)C2)c1	-6.1	-19	5975	2	2	-9	2
O=C(CN(Cc1ccccc1)C(=O)c1csnn1)NCc1ccccc1	-1.9	-10	3287	1	8	8	12
Cc1ccc(S(=O)(=O)N[C@H](C(=O)NC2CCC(C)CC2)C(C)C)cc1 (stereo partly drawn)	2.5	-22	4245	6	2	nt	4
Cc1nnc(SCC(=O)Nc2ccccc2)[nH]c1=O	3.7	-14	7582	2	0	6	0
O=C(Nc1ccc2c(c1)CCC2)Nc1ccc2c(c1)OCO2	-0.7	-103	2107	-2	4	-1	-9
Cc1c(NC(=O)c2cccs2)cccc1[N+](=O)[O-]	1.9	-11	2172	9	5	-11	10
COc1ccccc1NC(=O)CN1C(=O)COc2ccc(C)cc21	5.6	-9	3811	12	-2	-7	6
O=C(Nc1cccc(Oc2ccc(C(=O)O)c(C(=O)O)c2)c1)c1ccc(-c2ccccc2)cc1	4.2	13	3256	12	6	24	-11
COc1cc(/C=C/CO)cc(OC)c1OC/C=C(\C)CCC=C(C)C	11	-6	5493	nt	nt	-2	-7
C/C=C\C=C\C(=O)N1CC2(CC(c3cccc(NC(=O)CC)c3)=NO2)C[C@H]1C(N)=O (stereo partly drawn)	nt	-8	2865	nt	nt	-5	nt
CC(C)(C)OC(=O)NN=Cc1ccc([N+](=O)[O-])s1	4.0	nt	nt	4	4	nt	15
N#CC1=C(N)Oc2c(c(=O)oc3ccccc23)C1c1ccncc1 (stereo not drawn)	8.5	-2	5900	-1	-10	nt	15
Cc1cc(=O)n2nc(N3CCC(C(=O)NCc4cccc(Br)c4)CC3)sc2n1	0.8	-7	5942	8	10	-3	3
CCCNC(=O)C1CC2Cn3c(nc4ccccc43)C2N1C (stereo not drawn)	5.0	-25	3552	19	6	8	1
COc1ccc(/C=N/Nc2nc3ccccc3o2)cc1O	nt	-9	3047	nt	nt	-6	nt
COc1ccc(CN2C(=O)c3ccccc3C2OC)cc1 (stereo not drawn)	7.6	-11	3354	14	9	-5	6
Cc1noc(C)c1CCC(=O)N1CCCC(CO)(Cc2ccccc2)C1 (stereo not drawn)	0.4	-42	4208	2	1	-8	2
CC[C@H](C)[C@@H](C(=O)N1CCNCC1)n1cc([C@@H](N)CC(C)C)nn1	nt	-6	3921	nt	nt	-9	nt
Oc1c(Br)cc(Br)cc1CN1CCN(Cc2ccccc2)CC1	-6.0	-16	4498	-11	-7	-2	-5
O=C1CCCC2=C1C(c1ccccc1)n1c(s/c(=C/c3cccc(F)c3)c1=O)=N2 (stereo not drawn)	nt	-9	4344	nt	nt	31	nt
CN(C(=O)c1cccc(NC(=O)Cc2ccc(NC(=O)C3CCN(C(=O)C4CCCCC4)CC3)cc2)c1)C1CCCC1	4.4	-17	3147	-2	5	nt	0

(cont.)
SMILES	Sa RN4220 lethal	PrP UTR inh	Bead autofluor	Mtb hypoxia rep	Mtb hypoxia rep growth	BJeLR viability	Sa ugtP lethal
Cc1ccccc1NC(=S)N(CCN1CCCCCC1)Cc1cccs1	-0.8	-5	4163	1	-8	-17	1
Cc1ccc(F)c([C@H]2[C@H]3C=CC[C@@H](C)[C@@H]3C(=O)N2Cc2ccccc2)c1	nt	-16	4071	nt	nt	2	nt
CCOC(=O)c1sc(NC(=O)CSc2n[nH]c(-c3ccccc3)n2)c(C#N)c1C	nt	-28	4434	nt	nt	6	nt
Cc1nc2ccccn2c1C(=O)NNS(=O)(=O)c1ccc(C(C)(C)C)cc1	2.3	-17	2355	6	-2	9	0
CC(C(=O)Nc1ccc(S(=O)(=O)N2CCCC2)cc1)N1CCN(c2ccccc2O)CC1 (stereo not drawn)	9.4	-17	4099	-2	2	nt	2
CCOC(=O)N1CCN(C(c2ccc(C)cc2)c2sc3nc(C)nn3c2O)CC1 (stereo not drawn)	-15	-16	4800	4	6	4	-4
O=c1c(Cl)c(N2CCN(c3ccc(F)cc3)CC2)cnn1-c1nc2ccccc2s1	0.8	-81	2142	9	10	0	-1
Cc1ccc(S(=O)(=O)N(CC(=O)N/N=C/c2ccco2)c2cc(Cl)cc(Cl)c2)cc1	nt	-7	9733	nt	nt	-8	nt
CN1CCc2c(sc(NC(=O)Cc3ccc(F)cc3)c2C(N)=O)C1	2.6	3	6083	12	-5	4	5
O=C(CS(=O)c1cccc(C(F)(F)F)c1)Nc1ccc(Cl)cc1Cl (stereo not drawn)	2.0	-24	5567	8	1	-11	-3
COc1ccc2[nH]c(=O)c(CN(CC3CCCO3)S(=O)(=O)c3ccccc3F)cc2c1 (stereo not drawn)	3.4	6	4468	-6	-9	-3	-3
CCC(C)[C@H](NC(=O)OC(C)(C)C)C(=O)NN=Cc1ccc2nccnc2c1 (stereo partly drawn)	5.1	nt	nt	1	-3	nt	11
COc1ccc(NC(=O)Cn2nnc(-c3ccccc3NS(=O)(=O)c3ccccc3)n2)cc1	-1.3	-17	11340	7	5	11	-14
Cc1occc1C(=O)N1CCN(S(=O)(=O)c2ccc(F)cc2)CC1	2.9	-17	6081	2	5	nt	1
OCCNCC12CC3CC(CC(C3)C1)C2	-1.4	-19	4527	-9	-10	2	0
CC(C)c1ccc(O)c(N)c1	8.5	-1	4305	2	-1	10	11
CCOC(=O)CC(=O)CSc1nc(-c2cccnc2)ccc1C#N	11	-10	8713	4	3	-5	8
COc1ccc(C(=O)NC(Oc2ccccc2)C(Cl)(Cl)Cl)cc1 (stereo not drawn)	1.1	-6	3008	2	5	-15	1
Cc1nn(S(=O)(=O)c2ccc(Br)cc2)c(C)c1S(=O)(=O)N1CCOCC1	0.9	-13	5780	-2	1	-11	-4
Cc1ccc(CNC(=O)c2cc(-c3ccccc3)nn2CC2CC(c3cccc([N+](=O)[O-])c3)=NO2)cc1 (stereo not drawn)	2.4	-11	2980	4	10	-4	-4
Cc1ccc(NC(=O)Nc2ccc(Cl)cc2)c(Br)c1	-3.9	-66	2523	15	8	-1	-20
Clc1ccc(-c2nn3c(-c4ccccc4)nnc3s2)cc1	12	-41	5642	-5	-2	-3	-17
Cc1ccc(-n2nnnc2CNC(=O)C2CC(=O)N(c3ccc(F)cc3)C2)cc1C (stereo not drawn)	nt	-15	5402	nt	nt	12	nt

No enrichment for hits; 4% or so of the library scored in one or more.
